High-throughput results deposited in PubChem by several laboratories.
CSC inhib – cancer stem cell viability inhibitors, primary screen, luminescence; cancer stem cell-like cells viability; AID 2717, 2010; inhibition, % at 7.5 µM; hit rate 1.1% among 300,000;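 active = mean at 75% or more and at least half the replicates too; inconclusive = mean and replicates disagree; tested in HMLE shEcad cells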;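 note: 0% = median of negative and 100% = median of positive control wells; the first replicate is given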
Env fusion inh – inhibitors of HIV-1 Env-driven cell-cell fusion, primary screen, HeLa-JRFL effector, CEM21 target cells, luciferase. AID 651610, 2012. hit rate 1.1% among 360,000. inhibition, % at 12.3 µM;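 active = mean replicate inhibition score of at least 50 and every replicate individually at or above 50; inconclusive = only one of the two criteria met; inactive = mean below 50 and not all replicates reaching 50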;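 note: 0% = plate neutral controls and 100% = maraviroc near 300 nM; one replicate is shown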
Yeast UUG start – modulators of yeast start codon fidelity, primary screen, whole organism, S. cerevisiae, single point, plate reader; S. cerevisiae UUG-firefly luciferase reporter, luminescence/redox ratio; activity score, % at 18.7 µM; hit rate 0.13% among 350,000; AID 602363, 2012;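 active = replicate mean at a twofold rise or more, about +100% in these data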;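 note: firefly luciferase made from a UUG start codon reports start codon fidelity; reporter light over untreated wells divided by growth signal over untreated wells; some hits fall short of that in this replicate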
eIF4H inh – human eIF4H binding inhibitors, primary screen, translation initiation inhibitor project, biochemical, uHTS, fluorescence polarization | Eukaryotic translation initiation factor 4H (Homo sapiens), Q15056 | eIF4H fluorescence polarization binding assay | inhibition, % at 35 µM | hit rate 0.94% among 290,000;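 active = 50% or more with normal probe brightness, or confirmed in later tests; inconclusive = above 50% with abnormal brightness, or retests that disagree; inactive = below 50% or failed in later tests; about a fifth of its hits are not listed in these tables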;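 note: calls also rest on retests at 20 µM and on dose response follow-up; 0% = protein and probe with vehicle and 100% = probe without protein; strong numbers were not always called active; many hits fall short of the cut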
PABP polyA inh – PABP poly(A) RNA binding inhibitors, primary screen, biochemical, fluorescence polarization, uHTS; inhibition, % at 35 µM; AID 2014, 2009; Polyadenylate-binding protein 1 (Homo sapiens), P11940; hit rate 1% among 290,000;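 active = 50% or more with normal probe brightness, or confirmed in later tests; inconclusive = above 50% with abnormal brightness, or retests that disagree; inactive = below 50% or failed in later tests; about a fifth of its hits are not listed in these tables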;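 note: calls also rest on retests at 20 µM and on dose response follow-up; controls were probe without protein and protein plus probe with vehicle; some compounds called inactive have numbers as strong as hits; many hits fall short of the cut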
Target sequence (P11940 whole entry, looked up): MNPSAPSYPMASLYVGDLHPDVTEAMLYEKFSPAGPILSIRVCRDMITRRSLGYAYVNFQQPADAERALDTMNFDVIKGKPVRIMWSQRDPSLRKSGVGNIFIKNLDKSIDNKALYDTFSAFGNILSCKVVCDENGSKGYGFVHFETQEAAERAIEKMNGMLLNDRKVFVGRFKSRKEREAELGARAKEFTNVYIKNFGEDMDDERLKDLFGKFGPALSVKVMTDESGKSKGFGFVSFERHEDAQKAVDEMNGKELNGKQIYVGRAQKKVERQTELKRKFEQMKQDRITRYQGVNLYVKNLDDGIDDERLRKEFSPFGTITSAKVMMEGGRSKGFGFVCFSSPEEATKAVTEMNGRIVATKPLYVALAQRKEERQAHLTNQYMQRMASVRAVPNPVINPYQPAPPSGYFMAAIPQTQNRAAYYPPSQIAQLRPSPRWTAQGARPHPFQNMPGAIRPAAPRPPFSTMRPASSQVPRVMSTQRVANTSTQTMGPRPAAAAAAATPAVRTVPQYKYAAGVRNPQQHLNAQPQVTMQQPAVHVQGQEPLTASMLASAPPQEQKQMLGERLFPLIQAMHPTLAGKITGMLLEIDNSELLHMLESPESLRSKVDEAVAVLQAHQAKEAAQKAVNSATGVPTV
MT1-MMP act inh – blockers of MT1-MMP proenzyme processing, primary screen, HT1080 RFP-PRO-GFP cells, GFP/RFP fluorescence | Matrix metalloproteinase-14 (Homo sapiens), P50281 | GFP/RFP ratio fluorescence, overnight; percent of plate control window, DMSO zero | GFP/RFP ratio change, % at 20 µM | hit rate 0.061% among 360,000 | AID 651647, 2012;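 active = GFP/RFP ratio change of at least 30% with cell ATP level not reduced by more than half and red fluorescence within 50% of control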; note: strong numbers were not always called active
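system = RFP-PRO-GFP reporter HT1080 cells | dosing = 20 µM single dose, 1% DMSO | timing = overnight cell settling, then overnight compound exposure, 37 °C, 5% CO2 | read-out basis = GFP/RFP fluorescence ratio | controls = DMSO and RFP-L50D-GFP cell wells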
Rce1 inh – yeast Rce1p protease inhibitors, primary screen, biochemical, fluorescence, cell-free homogeneous; yeast membranes, quenched prenylated peptide cleavage fluorescence; hit rate 0.27% among 290,000; calls only; AID 2563, 2010; CAAX prenyl protease 2 (Saccharomyces cerevisiae (strain ATCC 204508 / S288c)), Q03530;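 active = fall in fluorescence gain of 50% or more versus controls, with final raw signal at or below 3038400; inconclusive = same 50% fall but final raw signal above 3038400; inactive = fall in fluorescence gain under 50%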;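 note: plate controls were neutral control wells for no effect and wells lacking membranes for full effect; tested at 10 µM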
Target sequence (Q03530 whole entry, looked up): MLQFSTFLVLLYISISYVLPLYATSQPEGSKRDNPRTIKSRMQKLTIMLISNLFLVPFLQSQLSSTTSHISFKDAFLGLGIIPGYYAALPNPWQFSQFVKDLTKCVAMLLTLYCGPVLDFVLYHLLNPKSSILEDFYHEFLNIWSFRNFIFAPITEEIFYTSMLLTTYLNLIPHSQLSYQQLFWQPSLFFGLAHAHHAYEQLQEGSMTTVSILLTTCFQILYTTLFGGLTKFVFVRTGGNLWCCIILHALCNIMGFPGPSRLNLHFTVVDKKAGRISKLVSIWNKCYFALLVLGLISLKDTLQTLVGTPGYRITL
eIF4H inh retest – further read-out of eIF4H inh, marked with its call; inhibition, %; compound at 20 µM; confirmation average;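 mean of two retest wells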
PABP polyA inh retest – also measured in PABP polyA inh; calls as there; inhibition, %; compound at 20 µM; confirmation repeats;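 mean of two retest wells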
MT1-MMP act inh RFP – further read-out of MT1-MMP act inh, marked with its call; RFP signal change, %; measured here: RFP expression control read;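 0 = vehicle wells; hits needed this value within 50% of zero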
Starred values were filed as active, the others as inactive; i = inactive; ? = inconclusive; . = no result given; & = joins results of further samples; [ ] = another dose, or the depositor's remark.

SMILES	CSC inhib	Env fusion inh	Yeast UUG start	eIF4H inh	PABP polyA inh	MT1-MMP act inh	MT1-MMP act inh RFP	Rce1 inh	others
O=C(CC(C(=O)N1CCc2ccccc21)n1ccnc1)NCc1cccnc1 (stereo not given)	2	-42	-22	7	2	0	-4	i
CCCCCC(=O)NNC(=S)NC(=O)c1ccccc1[N+](=O)[O-]	7	6	.	14	0	6	5	i
COc1ccc(N(Cc2cc3ccccc3[nH]c2=O)C(=O)C2CCCO2)cc1 (stereo not given)	-7	.	-16	10	24	0	2	i
CCN(CC)S(=O)(=O)c1ccc(Cl)c(C(=O)Oc2cccc(-c3cnc4ccccc4n3)c2)c1	-2	.	-35	-3	-1	-1	-2	i
CCCOc1ccc(N2C(=O)CC(N(CCC)C(=O)CCC(=O)O)C2=O)cc1 (stereo not given)	-3	.	-10	-7	-6	-1	9	i
Cc1ccc(-n2c(SCC(=O)Nc3ccc4c(c3)OCO4)nnc2-c2ccoc2C)cc1	61	.	-2	-1	2	4	-6	i
C/C(=N\NC(=O)c1c(C)nc2ccccn12)c1ccc(N2CCOCC2)cc1	-3	6	.	-11	-20	4	4	i
CCCOc1ccc(C(=O)CCN2CCCCC2)cc1	-7	.	2	-3	-1	5	5	i
C/C(=N/NS(=O)(=O)c1ccc(F)cc1)c1ccncc1	-10	-10	-4	-9	6	-2	0	i
COc1ccccc1NC(=O)c1ccc(NC(=O)COC(=O)C2CCCO2)cc1 (stereo not given)	.	.	.	-6	-14	1	2	.
CCc1c(C)c(C#N)c2nc3ccccc3n2c1NCC1CCCO1 (stereo not given)	-9	-1	-14	-6	-3	-3	-2	i
CCc1ccc(NC(=O)CSc2nc3c(c(=O)n(C)c(=O)n3C)n2C)cc1	-8	24	-3	2	-1	7	-7	i
CCN(CC(=O)Nc1c(F)cccc1F)C(=O)c1ccc(N2C(=O)c3ccccc3C2=O)cc1	9	-22	-7	.	.	0	1	i
CS(=O)(=O)N1CCN(c2ccccc2NC(=O)c2ccc(-c3ccc(Cl)cc3Cl)o2)CC1	-8	.	-6	12	37	-1	-7	i
CC1=CC2(C#N)C3(N=C(N)C2(C#N)C(c2ccccc2)N1)OCCO3 (stereo not given)	.	.	-11	8	0	-7	0	.
O=C(c1cc(Cl)ccc1O)N1CCN(S(=O)(=O)Cc2ccccc2)CC1	-9	1	-35	.	.	4	-5	.
CN(C)c1cc(-c2ccc(Cl)cc2)oc(=O)c1Cl	-5	-15	.	5	4	-3	-3	i
O=C(CNC(=O)c1cc2c(s1)CCC2)Nc1ccccc1Br	.	-152	-13	55	8	4	1	i	eIF4H inh retest=-5;PABP polyA inh retest=9
Cc1ccc(Nc2ncc(C(=O)NCCCN3CCN(C)CC3)c3ccccc23)cc1Cl	0	11	.	-5	11	7	6	i
COc1ccccc1-n1cnc2c(c1=O)c1nc3ccccc3nc1n2-c1ccc(C)c(C)c1	.	-32	-14	0	6	-2	-7	i
CC1Cc2ccccc2N1C1=NS(=O)(=O)c2ccccc21 (stereo not given)	-1	.	-22	-7	-9	2	-2	i
CC(C)C(=O)N1CCC(n2nccc2NC(=O)CCOc2ccccc2)CC1	11	-10	5	-1	-2	-2	0	i
COc1cccc(NC(=O)N[C@@H](Cc2ccccc2)C(=O)O)c1	0	.	-10	-3	-5	8	5	i
N/C(=N\NC(=O)c1cccc(F)c1)c1cc2ccccc2oc1=O	-4	-13	-36	-2	8	0	3	i
Fc1cccc(Nc2nc3ccccc3n3nnnc23)c1	-8	24	-17	13	34	1	10	i
O=C1OC(=O)c2cc([N+](=O)[O-])ccc21	2	.	-7	.	.	1	9	.
Cc1ccc2cc(CN(Cc3ccc(F)cc3)Cc3nnnn3C3CCCC3)c(=O)[nH]c2c1	21	.	9	4	1	-5	-7	i
C[C@H](NC(=O)c1nc[nH]c1C(=O)N(C)CCO)c1ccccc1	.	-3	-5	.	.	1	4	.
Cc1ccc(C(=O)Nc2c(C(=O)N3CCOCC3)cnn2-c2ccccc2)cc1	1	.	2	3	4	1	-7	i
C=CCn1c(-c2ccccc2)ccc(C#N)c1=O	7	-423	-9	3	-2	1	-2	i
CN(c1ccccc1)c1ccc(/C=c2\s/c(=C(/C#N)C(=O)C(C)(C)C)n(Cc3ccco3)c2=O)cc1	10	.	.	?	?	.	.	i
CC(=O)N1CCCc2cc(S(=O)(=O)Nc3cccc(C)c3C)ccc21	-6	2	-10	-12	-1	.	.	i
CCOc1ccc(-c2cc(C(=O)O)c3ccccc3n2)c(OCC)c1	20	-354	-13	4	-8	4	7	.
CCOc1ccccc1N1C(=O)CC(Sc2ncccc2C(=O)O)C1=O (stereo not given)	-9	.	-14	6	5	6	7	i
CCOC(=O)N1CCC(N(CCN(C)C)C(=S)Nc2cc(Cl)cc(Cl)c2)CC1	20	-7	-18	1	-4	-1	2	i
O=C(C1CCCN(Cc2ccccc2C(F)(F)F)C1)N1CCCCC1 (stereo not given)	-7	.	-7	12	-2	-1	2	i
Cc1nc(-c2ccccc2)sc1-c1ccnn1C	-5	-153	.	4	5	0	0	?
CCN(CC)CCCNC(=O)CNC(=O)c1nn(-c2ccc(OC)c(OC)c2)c(=O)c2ccccc12	-5	2	-3	6	16	5	7	i
Cc1cc(OC(=O)c2cc(Br)ccc2Cl)c([N+](=O)[O-])c(=O)[nH]1	-6	-22	3	-8	-11	-1	4	i
N/C(=N\OC(=O)c1ccccc1Cl)c1cccnc1	8	.	-20	-7	-4	-2	4	i

Two entries drawn at random from the list so far:
SMILES	CSC inhib	Env fusion inh	Yeast UUG start	eIF4H inh	PABP polyA inh	MT1-MMP act inh	MT1-MMP act inh RFP	Rce1 inh	others
CC1Cc2ccccc2N1C1=NS(=O)(=O)c2ccccc21 (stereo not given)	-1	.	-22	-7	-9	2	-2	i
C[C@H](NC(=O)c1nc[nH]c1C(=O)N(C)CCO)c1ccccc1	.	-3	-5	.	.	1	4	.

(cont.)
SMILES	CSC inhib	Env fusion inh	Yeast UUG start	eIF4H inh	PABP polyA inh	MT1-MMP act inh	MT1-MMP act inh RFP	Rce1 inh	others
CC(=O)c1c(C)nc(C)nc1NC(=O)C(C)C	9	0	-10	-11	5	-3	4	i
O=C(O)COc1ccccc1/C=N/Nc1ccc(S(=O)(=O)N2CCOCC2)cc1[N+](=O)[O-]	-6	-17	0	-2	3	8	-1	i
CCN(C(=O)CSc1nnc(-c2ccc(C)cc2)n1N)c1c(N)n(Cc2ccccc2)c(=O)[nH]c1=O	.	5	-4	.	.	-2	1	.
COc1ccccc1-c1nc2cc(Cl)ccc2c(=O)n1O	-8	-60	-16	4	0	2	7	i
Cn1c(NC(=O)c2ccc(S(=O)(=O)N3CCOCC3)cc2)cc(=O)n(C)c1=O	3	3	6	5	8	1	-2	i
O=C(CCCc1nc(-c2ccc(Cl)cc2)no1)NCC1CCCO1 (stereo not given)	1	9	-13	2	-9	2	-17	i
CNc1nc(SC)nc2ccccc12	-12	15	.	3	4	-3	-1	i
CSCC(C)N1CCC(n2nccc2NC(=O)CCOc2ccccc2)CC1 (stereo not given)	5	11	-13	77	17*	0	-2	i	eIF4H inh retest=37;PABP polyA inh retest=59*
CC(=O)c1cc2c(cc1NS(=O)(=O)c1ccccc1)OCO2	8	14	-11	4	4	4	-2	i
O=C1CC2(CCN(C(=O)c3ccccc3F)CC2)Oc2ccccc21	-14	-1	-12	.	.	1	-2	i
CC(=O)NS(=O)(=O)c1ccc(NS(=O)(=O)c2ccc3ccccc3c2)cc1	.	-22	-9	4	0	-2	-2	i
Cc1ccc(-c2cc(C(=O)N3CCCCC3)c3ccccc3n2)cc1C	30	-3	12	2	-5	-2	-4	i
COC(=O)c1c(NC(=O)CN2CCN(C(=O)c3ccco3)CC2)c2cc(C)ccc2n1C	-11	24	0	-2	-6	0	5	i
CCOC(=O)C1(C)NC(c2ccco2)C2C(=O)N(CC)C(=O)C21 (stereo not given)	8	-3	.	4	-7	2	11	i
CC(=O)Nc1ccc(NC(=O)C(C)N(C)CC(=O)Nc2ccccc2Br)cc1 (stereo not given)	1	7	-24	-6	-4	0	1	i
COCCSc1nnc(NC(=O)Cc2ccccc2OC)s1	-7	-15	-12	2	-4	4	4	.
COc1ccc(S(=O)(=O)NCC(c2cccnc2)N2CCN(c3ccc(F)cc3)CC2)cc1C (stereo not given)	.	.	-19	4	2	3	-4	i
COc1ccc(S(=O)(=O)Nc2cc(C)ccn2)cc1OC	2	.	-8	4	-4	1	6	i
Nc1ccc(C(=O)OCC(=O)NC2CCCc3ccccc32)cc1[N+](=O)[O-] (stereo not given)	-5	37	-13	1	-4	2	2	i
Cc1c(Cc2ccc3c(c2)OCO3)sc(NC(=O)c2ccccc2)c1C(N)=O	41	-13	-9	40	-4	-6	-2	i
O=C1CCC(=O)N1c1ccccc1OS(=O)(=O)c1ccccc1	7	.	-16	0	2	2	2	.
C/C(=N/NC(=O)c1cccc(N2CCCC2=O)c1)c1ccc(Br)cc1	.	-50	-19	-5	-3	4	3	i
Cc1cc(Oc2ccc(=O)[nH]n2)nc(Cl)n1	-20	3	-15	0	-10	-1	2	i
NC(=S)N/N=C/c1ccc(-c2cc(Cl)ccc2Cl)o1	28	.	-20	0	4	-3	1	i
CCOC(=O)N1CCN(C(=O)c2ccc3c(SCC(=O)O)c4c(nc3c2)CCCC4)CC1	-10	.	-8	-6	-16	1	1	i
CC(=O)OCCOc1nc(N(C)C)nc(N(C)C)n1	.	-22	-5	5	-11	-2	1	i
CCOCCCNC(=O)c1cccs1	-11	.	.	4	-1	3	4	i
COc1ccc(NC(=O)COC(=O)c2c(C)noc2C)c(OC)c1	-6	.	.	5	-5	4	2	i
COC(=O)Cc1c(C)c2ccc(OCC(C)=O)c(C)c2oc1=O	3	.	0	-8	-13	1	0	i
CCO[C@H]1OC(C(=O)NCc2nc3ccccc3[nH]2)=C[C@@H](c2csc3ccccc23)[C@@H]1CCCO	-17	-12[16.7 µM]	9&-19	-2	7	-6	-2	i
Cc1c(CN2CCCC(C(=O)Nc3cccc(-n4cccn4)c3)C2)cnn1C (stereo not given)	4	22	4	-3	6	-2	4	i
CC(/C=N/NC(=O)Cc1cccn1C)=C\c1ccco1	-3	11	-17	6	4	-6	3	i
COc1ccc(Nc2nnc(-c3ccccc3)c3ccccc23)cc1C(=O)N1CCCCC1	97*	6	-4	-1	-1	-4	-1	i
CN1C(C(=O)NCc2ccc(OC(F)(F)F)cc2)CC2Cn3c(nc4ccccc43)C21 (stereo not given)	-13	8	-10	-3	2	6	-2	i
OC(CCN1CCCC1)(c1ccccc1)C1CCCCC1 (stereo not given)	-8	-28	-5	1	2	-8	0	i
CCOc1ccccc1N1CCN(c2nc(N)c(C#N)c(CC#N)c2C#N)CC1	-9	.	2	30	48	-15	5	i
O=C(Cn1nnc(-c2ccccc2)n1)NCc1ccccc1	-1	-19	-23	-17	3	-2	-1	i
O=C(CN1C(=O)c2ccccc2S1(=O)=O)Nc1ccon1	13	0	-9	.	.	0	4	i
